Source: PubChem (National Center for Advancing Translational Sciences (NCATS))
Vaccinia mCherry – vaccinia inhibition (mCherry reporter); 0.63% of 310,000 active; Vaccinia virus mCherry reporter infection, fluorescence; about a quarter of the inactives have no number; AID 720579; Potency, µM (series often up to 36.5 µM), for inactives: at the highest dose activity change, negative = inhibition, actives largely listed as inhibitors; active = well fitted inhibition curve with a large enough effect; inconclusive = small, poorly fitted or top-dose-only effect; inactive = no such curve, though single readings can be large or run the other way; tested in A549 cells; also: nearly all actives have a fitted effect of over 35% in size; inactives centre near -10
Vaccinia Venus – vaccinia inhibition (Venus reporter); Vaccinia virus Venus reporter expression, fluorescence; Potency, µM (titrated, usually from 36.5 µM), without a hit: at the top dose activity change, negative = inhibition, usual class: inhibitors; 0.46% of 330,000 active; AID 720580; active means well fitted inhibition curve with a large enough effect; inconclusive means small, poorly fitted or top-dose-only effect; inactive means no such curve, though single readings can be large or run the other way; tested in A549 cells; also: nearly all actives have a fitted effect of over 30% in size; inactives centre near -10
An asterisk follows results filed as active; i = inactive; ? = inconclusive; . = no result given; [ ] = remark or other dose. % is scaled to controls: 0 for no effect and ±100 for the full control effect; potency is read from the fitted curve at half-maximal effect.

Start of the listing, in advance (four entries):
no.	SMILES	Vaccinia mCherry	Vaccinia Venus
1	Cc1ccc(O)c(C(CC(=O)NCc2ccco2)c2ccccc2)c1 (centres undefined)	-23%	-8%
2	CCOC(=O)c1[nH]c(C)c(C(=O)Nc2ccc(Cl)cc2)c1C	-4%	-3%
3	C[C@@H](NC(=O)c1nc[nH]c1C(=O)NCc1ccccc1)c1ccccc1	-20%	-21%
4	Cc1cccc(C)c1NC(=O)CN(C)C(=O)c1cc(S(=O)(=O)N2CCOCC2)ccc1N1CCCC1	i	-5%

The listing, from the start:
no.	SMILES	Vaccinia mCherry	Vaccinia Venus
1	Cc1ccc(O)c(C(CC(=O)NCc2ccco2)c2ccccc2)c1 (centres undefined)	-23%	-8%
2	CCOC(=O)c1[nH]c(C)c(C(=O)Nc2ccc(Cl)cc2)c1C	-4%	-3%
3	C[C@@H](NC(=O)c1nc[nH]c1C(=O)NCc1ccccc1)c1ccccc1	-20%	-21%
4	Cc1cccc(C)c1NC(=O)CN(C)C(=O)c1cc(S(=O)(=O)N2CCOCC2)ccc1N1CCCC1	i	-5%
5	CC1CCCN(Cc2c(O)ccc3c(=O)c(-c4ccccc4Cl)c(C(F)(F)F)oc23)C1 (centres undefined)	12%	10%
6	O=C(CCCOc1ccc(Cl)cc1Cl)N/N=C/c1ccco1	?	-11%
7	c1ccc2nc3ccccc3nc2c1	?	?
8	CC1=C(C(=O)Nc2ccccc2)C(c2ccc(C)cc2)n2nc(SCc3ccccc3C)nc2N1 (centres undefined)	?	?
9	Cn1nccc1C(=O)NCc1ccc2c(c1)CCN2C(=O)c1ccc(F)cc1	i	-17%
10	COc1cc2nc(SCC(=O)Nc3ccc(F)cc3)n3nc(CCn4c(C)nc5ccccc54)nc3c2cc1OC	-5%	-12%
11	COc1ccccc1C1CC(c2cccs2)=Nc2ccccc2S1 (centres undefined)	-4%	-11%
12	COc1ccccc1-c1nn(Cc2ccccc2)cc1C(=O)N1CCN(c2ncccn2)CC1	-9%	-21%
13	CCN(CC)CCNC(=O)c1ccc(NC(=O)Cc2ccccc2F)cc1	-19%	-11%
14	Cc1ccc(NS(=O)(=O)c2csc(C(N)=O)c2)cc1C	-21%	-23%
15	CC1CCC(Nc2nc3c(-c4cccc(C(F)(F)F)c4)nnn3c3ccccc23)CC1 (centres undefined)	-2%	1%
16	CCCOc1cccc(C2c3c(oc4cc(C)c(C)cc4c3=O)C(=O)N2CCCN2CCOCC2)c1 (centres undefined)	-14%	-11%

From entry 12 up to 16, as listed above:
no.	SMILES	Vaccinia mCherry	Vaccinia Venus
12	COc1ccccc1-c1nn(Cc2ccccc2)cc1C(=O)N1CCN(c2ncccn2)CC1	-9%	-21%
13	CCN(CC)CCNC(=O)c1ccc(NC(=O)Cc2ccccc2F)cc1	-19%	-11%
14	Cc1ccc(NS(=O)(=O)c2csc(C(N)=O)c2)cc1C	-21%	-23%
15	CC1CCC(Nc2nc3c(-c4cccc(C(F)(F)F)c4)nnn3c3ccccc23)CC1 (centres undefined)	-2%	1%
16	CCCOc1cccc(C2c3c(oc4cc(C)c(C)cc4c3=O)C(=O)N2CCCN2CCOCC2)c1 (centres undefined)	-14%	-11%

Continuation:
no.	SMILES	Vaccinia mCherry	Vaccinia Venus
17	CCOc1ccc(NC(=O)CN2CCN(C(=O)c3ccco3)CC2)cc1S(=O)(=O)N1CCCC1	-5%	-10%
18	CC(=O)Nc1cccc(NC(=O)COc2ccccc2C)c1	-11%	-16%
19	CCN(Cc1ccccc1)C(c1ccncc1)c1nnnn1C(C)(C)C (centres undefined)	i	-15%
20	N/C(=N\OC(=O)CCCN1C(=O)c2ccccc2C1=O)c1ccc(Cl)cc1	i	-9%
21	COc1cc(OC)c(N(C)C(=O)c2c(C)oc3ncn(CC(C)C)c(=O)c23)cc1Cl	-7%	0%
22	NC(=O)C1CC(=O)N(Cc2ccc3c(c2)OCO3)C(=Nc2ccccc2)S1 (centres undefined)	-7%	-12%
23	Cc1ccc([N+](=O)[O-])cc1NC(=O)CN1CCC(C)CC1	-12%	-7%
24	CC1(C)CC(=O)C2=C(C1)OC(N)=C(C#N)C21C(=O)N(CN2CCOCC2)c2ccccc21 (centres undefined)	-1%	-7%
25	Cc1ccc(C)c(Cn2c(=O)n(CCCC(=O)NCc3ccc4c(c3)OCO4)c(=O)c3sccc32)c1	-27%	-23%
26	CCCCNC(=O)C1CCN(c2nc3ccc(C)cc3[nH]2)CC1	-15%	-13%
27	Cn1nnc(NC(=S)NC(=O)c2cccc3ccccc23)n1	-12%	-13%
28	CCC(=O)N1CCC1(C)C(=O)Nc1ccc(OC(F)F)cc1 (centres undefined)	42%[activator]	8%
29	Cc1ccc(C(O)(C(=O)NN(C(=O)c2ccccc2)c2ccccc2)c2ccc(C)cc2)cc1	-14%	2%
30	COc1ccc(-c2ccc(=O)n(CC(=O)NCC3COCCO3)n2)cc1 (centres undefined)	i	4%
31	Cc1cc(OCC(=O)NCCN2CCOCC2)cc(C)c1Cl	i	-13%
32	COc1ccc(C)cc1NC(=O)CSc1nc(SC)ns1	.	-20%
33	COc1ccc(CC(=O)c2ccc(OC)c(OC)c2)cc1	-14%	-7%
34	Cc1ccc(OCC(=O)c2cc(C)n(C3CC3)c2C)c([N+](=O)[O-])n1	-21%	-7%
35	COc1cccc(-n2ccnc2SCC(=O)Nc2ccc(Cl)c(Cl)c2)c1	i	-9%
36	CCOc1ccccc1NC(=O)c1ccccc1NC(=O)c1ccco1	1%	-2%
37	COc1cccc(NC(=O)Cn2c(=O)n(-c3ccccc3)c(=O)c3c2c2cc(OC)ccc2n3C)c1	8%	-11%
38	CCc1ccc2oc(C(=O)Nc3ccccc3C(=O)OC)cc(=O)c2c1	-19%	-9%
39	Cc1cc(C)cc(OCC(=O)NCC(c2ccc(Cl)cc2)N2CCCCC2)c1 (centres undefined)	i	-15%
40	Cc1ccccc1OCCSc1nnc(-c2cccs2)o1	-14%	-4%
41	COC(C[C@H]1O[C@H]1C(=O)COCc1ccccc1)OC	-8%	-17%
42	Cc1cc(C)cc(N=c2c([N+](=O)[O-])nn(-c3ccc4c(c3)OCCO4)n2O)c1	?	-20%
43	COc1ccc(/C=C/C(=O)OCc2cc(=O)n3c(n2)sc2ccccc23)cc1	-18%	0%
44	O=C(c1cc(=O)[nH]c2ccccc12)N1CCN(S(=O)(=O)c2ccc3ccccc3c2)CC1	?	-14%
45	Cn1c(Cc2ccccc2)nnc1SCc1ccc(C(=O)O)cc1	-9%	-13%
46	CCOc1cccc(OCCOc2ccccc2[N+](=O)[O-])c1	.	-16%
47	O=C(COC(=O)c1ccccc1Cl)NCc1ccco1	-13%	5%
48	COc1ccc(C(C#N)(CCC#N)CCC#N)cc1OC	.	6%
49	Cc1ccc(S(=O)(=O)NCC(=O)N2CCN(S(=O)(=O)c3ccc(Cl)cc3)CC2)cc1C	-10%	-28%
50	CC(=O)Nc1ccc(NC(=O)[C@@H]2CCCC[C@@H]2C(=O)O)cc1	i	1%
51	Cc1cc(Br)c(NC(=O)COC(=O)CSc2nnc(-c3ccc(Cl)cc3)o2)c(Br)c1	-14%	-16%
52	CC1C(=O)N(Cc2cn(Cc3ccco3)nn2)CCS(=O)(=O)N1Cc1ccc(-c2ccccc2)cc1 (centres undefined)	-15%	-13%
53	CNc1ccc(OC(F)F)cc1C(=O)c1ccccc1	i	-10%
54	COC(=O)c1cccc(-n2sc3ccccc3c2=O)c1	-14%	-25%
55	COc1ccc2cc(C(=O)Nc3ccccc3)sc(=O)c2c1OC	0%	-15%
56	O=C(NCC1CCCO1)c1csc2c1CCCC2 (centres undefined)	-15%	-4%
57	COc1ccc([N+](=O)[O-])cc1NC(=O)CCCOc1ccccc1	-11%	-12%
58	O=C(CN(CC1CCCO1)C(=O)CNS(=O)(=O)c1ccc(F)cc1)NCc1ccccc1 (centres undefined)	-4%	-8%
59	CC(C)c1ccccc1OCC(=O)Nc1ccccc1C(=O)N1CCOCC1	-4%	-14%
60	CC(OC(=O)CSc1ccc([N+](=O)[O-])cc1)C(=O)NCc1ccccc1 (centres undefined)	-30%	-3%
61	CC(=O)Nc1ccc(NC(=O)/C(=C/c2ccco2)NC(=O)c2ccccc2)cc1	i	-15%
62	COC(=O)c1ccccc1C(=O)N1CCOCCN(C(=O)c2ccccc2C(=O)OC)CCOCC1	i	-13%
63	COC(=O)C1=C(C)NC(=O)NC1c1ccc(OC)c(OC)c1 (centres undefined)	i	-4%
64	CC(C)NCCCOc1ccc(C(C)(C)c2ccccc2)cc1	-14%	-11%
65	COc1cccc(-n2c(SCC(N)=O)nc3c(oc4ccccc43)c2=O)c1	-1%	-5%
66	OC(c1ccc(F)cc1)c1nc(-c2csc3ccccc23)cs1 (centres undefined)	-18%	?
67	CSc1ccc(C#N)cc1NC(=O)c1ccc(Cl)nc1	1%	-2%
68	CC1CCc2c(sc(NC(=O)c3cc(-c4ccc(F)cc4)on3)c2C(N)=O)C1 (centres undefined)	-3%	3%
69	COc1ccc2c(c1)NC(c1ccc(Cl)cc1)=NC(c1cccs1)=N2	3%	3%
70	CSc1ccc(-c2nc3ncccn3c2Nc2ccc(C)c(C)c2)cc1	-11%	-17%
71	O=C(O)CCC1(c2ccccc2)NC(=O)NC1=O (centres undefined)	i	0%
72	Cc1c(Cl)c([N+](=O)[O-])nn1CCCC(=O)Nc1cc(Oc2ccccc2)cc([N+](=O)[O-])c1	-7%	-5%

More records follow:
no.	SMILES	Vaccinia mCherry	Vaccinia Venus
73	COc1ccccc1CNS(=O)(=O)CCNCCc1ccccc1	-11%	-26%
74	COc1ccccc1NC(=O)CCC(=O)N/N=C(/C)c1ccc(C)cc1	-11%	6%
75	S=C1NC2=C(CCCC2=C2SCCCS2)C(c2ccccc2)N1 (centres undefined)	-19%	-21%
76	Cc1ccc(S(=O)(=O)N2C[C@@]3(O)Cn4c(=O)ccc(=O)n4C[C@@]3(OC(=O)NCc3ccccc3F)C2)cc1	-9%	-5%
77	CCOC(=O)C1=CC[C@@H](c2ccccc2)N(S(=O)(=O)c2ccc(C)cc2)[C@H]1c1cccc(OC)c1	i	5%
78	CCCC(c1nnnn1Cc1ccc(OC)cc1)N1CCN(C(=O)c2ccco2)CC1 (centres undefined)	-6%	-4%
79	CC1CCCCN1c1ncnc2ccccc12 (centres undefined)	-7%	-30%
80	O=C(NCc1nc2ccccc2[nH]1)C1=C[C@@H](C2CCCCC2)C[C@@H](OCCCCO)O1	-3%	-27%
81	NC(=O)CC(NC(=O)Cc1ccc(Br)cc1)c1ccc(N2CCC(N3CCCC3)CC2)c([N+](=O)[O-])c1 (centres undefined)	-22%	-15%
82	COc1ccc(/C=N/N2CCN(c3ccncc3S(=O)(=O)N3CCCCC3)CC2)cc1	.	-3%
83	O=C(O)[C@@H]1CCCC[C@@H]1C(=O)N1CCc2ccccc2C1CN1C(=O)c2ccccc2C1=O (some centres undefined)	?	?
84	N#Cc1c(-c2cccs2)cc(C2CC2)nc1SCC(N)=O	.	-1%
85	O=C(c1ccc(S(=O)(=O)N2CCOCC2)cc1)N(c1ccccn1)C1CCCCC1	i	-4%
86	CN1C(=O)C2(c3ccccc31)N(c1ccc(F)c(Cl)c1)C(=O)CS2(=O)=O (centres undefined)	3%	7%
87	Cc1c(Nc2cc(N3CCCCCC3)c3nonc3c2[N+](=O)[O-])c(=O)n(-c2ccccc2)n1C	.	-13%
88	Cc1ccc(S(=O)(=O)NN2C(=O)/C(=C/c3ccccn3)SC2=S)cc1	-3%	-2%
89	O=C(COC(=O)c1ccccc1C(=O)c1ccccc1)NCc1ccc(F)cc1	-12%	-25%
90	O=C(c1ccc(S(=O)(=O)Nc2ccccc2)cc1)N1CCCCCCC1	0%	-4%
91	O=C(CCNC(=O)Cn1ccc2ccccc2c1=O)NCCN1CCN(c2ccccc2F)CC1	-14%	-3%
92	CCOc1ccc(S(=O)(=O)N2CCCCC2)cc1NC(=O)CCc1ccc(OC)cc1	i	-6%
93	Cc1cc(C)cc(N(CC(=O)NC2CCCCC2)C(=O)CCC(=O)Nc2cc(C)ccn2)c1	.	-14%
94	COc1ccc(-c2csc(NC(=O)c3ccco3)n2)cc1	-15%[1.46 µM]	-21%
95	O=C(Nc1c(C(=O)N2CCOCC2)cnn1-c1ccccc1)c1ccco1	i	-17%
96	O=C(N/N=C/c1ccc(O)cc1O)c1ccc(CN2C(=O)c3cccc4cccc2c34)cc1	2.5µM*	?
97	COc1ccc(S(=O)(=O)N2CCC(C(=O)N3CCCC3)CC2)cc1C	-11%	-2%
98	O=C(CC1C[C@H](C(=O)N2CCCCC2)[C@@]2(CCc3ccccc3)c3[nH]c4ccccc4c3CCN2C1=O)NCc1ccco1 (some centres undefined)	-20%	?
99	CCC(=O)N1N=C(c2ccc(NS(C)(=O)=O)cc2)CC1c1ccc(N(C)C)cc1 (centres undefined)	-9%	-26%
100	CC(=O)c1ccc(OCC(C)C)c(Cc2c(O)nc(N)[nH]c2=O)c1	-8%	-10%
101	CCOc1ccc(CCNC(=O)Cc2ccc(NC3=NC4CS(=O)(=O)CC4S3)cc2)cc1 (centres undefined)	i	-7%
102	CCCC[n+]1ccc(-c2nc3ccc([N+](=O)[O-])cc3[nH]2)cc1	-12%	-6%
103	CCCCNC(=S)Nc1cc(S(=O)(=O)N2CCCCC2)ccc1C	i	-6%
104	CCOc1cccc2cc(C(N)=O)c(=NCc3ccccc3)oc12	-9%	-2%
105	NC(=O)CN1C(=O)C2CCCCN2C(=O)c2ccccc21 (centres undefined)	-8%	-1%
106	CC(=O)NC(Cc1cc(C)ccc1C)C(=O)N1CCN(C(=O)c2ccc([N+](=O)[O-])cc2)CC1 (centres undefined)	i	1%

Random draw from the library; 0.87% or so of the library scored in one or more.
